# PINK1 expr mod – PINK1 expression modulation | PINK1 immunofluorescence, high-content cytometry, 24 h | Potency, µM (doses to about 76.6 µM), inactives show top-dose activation (PINK1 increase), usual class: activators | 410,000 compounds, 0.2% hits; active = well fitted activation curve with a large enough effect; inconclusive = small, poorly fitted or top-dose-only effect; inactive = flat fitted curve, though single readings scatter; cell line not stated here;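 note: potency is the fitted concentration of half-maximal effect; % of control where 0% means no effect; nearly all actives have a fitted effect of over 65% in size; a mitochondrial uncoupler was the plate control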
#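 A stable cell line was treated with compounds at 5 concentrations for 24 hours, with CCCP as control. PINK1 levels and mitochondrial localization were measured by immunofluorescence with mitochondrial, cell and nuclear markers after fixation, read by laser-scanning cytometry.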
# TRPML1 ag – human mucolipin-1 channel agonism; Q9GZU1; TRPML1-expressing cells, Ca2+ dye fluorescence, FDSS; host cell line not named in the record; reference of the full effect not given here; activation, % (test concentration not listed); 410,000 compounds, 0.12% hits; in the data active = activation above about 50%; inconclusive = about 30% to 50%; inactive = below about 30%; note: 0% is about no effect; the text of the record puts the active cut at 80%
#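 In this qHTS format, compounds were pin-transferred onto Ca8-dye-loaded TRPML1-DL cells induced with Tet overnight, and intracellular Ca2+ fluorescence was recorded kinetically for 110 s after a 10 s baseline. A subsequent 4uM final 54-4 (EC80) addition followed by a second 110 s read served as the antagonist phase.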
# TRPV1 potentiator – enhances activation of the human vanilloid receptor TRPV1 | 320,000 compounds, 0.02% hits | potentiation, % at 8.33 µM | AID 540277 | TRPV1-expressing cells, Fluo-8 calcium influx, capsaicin EC20 potentiation; host cell line not named in the record; control for the full effect not named in the record | Q8NER1; active means potentiation above 80%; inconclusive means 30% to 80%; inactive means below 30%; note: 0% is about no effect
# Target sequence (Q8NER1 whole entry, looked up): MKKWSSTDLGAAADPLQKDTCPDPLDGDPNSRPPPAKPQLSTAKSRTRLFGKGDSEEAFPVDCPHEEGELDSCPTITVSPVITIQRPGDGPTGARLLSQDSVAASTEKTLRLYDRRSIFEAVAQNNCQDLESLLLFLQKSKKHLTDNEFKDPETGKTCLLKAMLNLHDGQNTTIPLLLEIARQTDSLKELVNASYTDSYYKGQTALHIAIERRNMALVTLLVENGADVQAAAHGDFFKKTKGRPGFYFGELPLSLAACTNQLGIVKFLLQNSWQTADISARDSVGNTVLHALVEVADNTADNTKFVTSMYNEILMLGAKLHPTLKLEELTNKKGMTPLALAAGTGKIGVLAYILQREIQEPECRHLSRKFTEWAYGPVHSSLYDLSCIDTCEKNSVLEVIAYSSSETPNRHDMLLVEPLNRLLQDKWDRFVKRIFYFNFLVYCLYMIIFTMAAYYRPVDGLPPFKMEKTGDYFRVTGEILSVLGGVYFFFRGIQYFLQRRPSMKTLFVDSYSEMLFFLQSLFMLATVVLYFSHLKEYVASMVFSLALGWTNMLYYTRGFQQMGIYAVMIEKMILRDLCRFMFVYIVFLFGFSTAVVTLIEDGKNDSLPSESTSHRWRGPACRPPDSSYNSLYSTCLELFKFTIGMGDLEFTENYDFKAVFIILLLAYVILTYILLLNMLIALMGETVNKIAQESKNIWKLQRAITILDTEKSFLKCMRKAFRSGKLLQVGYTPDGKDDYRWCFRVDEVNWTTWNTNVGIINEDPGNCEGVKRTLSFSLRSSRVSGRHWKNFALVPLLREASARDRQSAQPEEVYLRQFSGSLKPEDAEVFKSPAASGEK
#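 Fluo-8 calcium influx in TRPV1-expressing cells, kinetic read (ex 480/em 520 nm). Compound added and read 3 min for agonist activity, followed by capsaicin at EC20 final and 2 min further read for enhancement.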
# ClpP mod – qHTS Assay for Activators of ClpP. Potency, µM (top dose mostly 57.5 µM), for inactives: top-dose activity change, negative = active. 340,000 compounds, 1.9% hits. purified B. subtilis ClpP, FRET peptide cleavage, 20 min. ATP-dependent Clp protease proteolytic subunit (Bacillus subtilis (strain 168)), P80244; active = well fitted falling curve with a large enough effect; inconclusive = small, poorly fitted or top-dose-only effect; inactive = no such curve, though single readings can be large or run the other way; note: potency is the fitted concentration of half-maximal effect; the source files actives as falling curves though it sought activators and does not explain the sign; nearly all actives have a fitted effect of over 65% in size; many hits overshoot -100%
# Target sequence (P80244 whole entry, looked up): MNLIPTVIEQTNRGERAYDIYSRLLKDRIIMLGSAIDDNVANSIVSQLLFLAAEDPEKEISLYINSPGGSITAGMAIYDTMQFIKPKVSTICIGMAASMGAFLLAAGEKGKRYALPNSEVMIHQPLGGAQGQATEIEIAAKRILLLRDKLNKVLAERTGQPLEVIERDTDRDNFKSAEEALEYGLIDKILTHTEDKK
#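 Purified B. subtilis ClpP, 10 microg/mL final in Tris/HCl pH8 with KCl, BSA, glycerol and Tween-20, cleaved an Abz/nitrotyrosine-quenched decapeptide. Fluorescence (ex 320, em 430) was read at 0 and 20 min at room temperature. Delta was normalized to 5.8 microM ADEP and DMSO/no-enzyme controls.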
# TRPML1 blocker – human mucolipin-1 channel inhibition | Q9GZU1 | TRPML1-inducible cells, Ca2+ dye fluorescence, FDSS; active compounds read low; inhibition of EC80 agonist-evoked calcium signal | activity change, negative = inhibition, % (test concentration not listed) | 390,000 compounds, 0.02% hits | AID 624415; in the data active means activity change below about -50%; inconclusive means about -30% to -50%; inactive means above about -30%;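 note: stimulus is agonist 54-4 at its EC80 concentration; % is set by controls: 0 for no effect and ±100 for the full control effect; compound concentration not given in the record; the text of the record puts the active cut at -80%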
#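 Tet-induced TRPML1-DL cells loaded with Ca8 no-wash calcium dye were read kinetically on FDSS. Compound addition was followed by EC80 agonist 54-4 (4 uM final); inhibition was read over 110 s.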
# Sfp PPTase inh – inhibitors of Bacillus subtilis Sfp phosphopantetheinyl transferase | Q9F4F7 | Biochemical Sfp PPTase activity, qHTS | 310,000 compounds, 3.5% hits | AID 1490 | Potency, µM, without a hit: max response, negative = inhibition, usual class: inhibitors; active = well fitted inhibition curve with a large enough effect; inconclusive = small, poorly fitted or top-dose-only effect, or another doubt; inactive = no such curve, though single readings can be large or run the other way;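 note: the enzyme is Sfp with the accession as filed and its product quenches rhodamine fluorescence; potency is the fitted concentration of half-maximal effect; 0% = enzyme reaction without inhibitor and -100% = no enzyme wells; top concentration of the series not given in the record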
#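 Step 1, compound plus 15 nM Sfp-PPTase, 15 min, room temperature. Step 2, add rhodamine-CoA (5 uM) and BHQ-2-YbbR (12.5 uM). Step 3, read 525/598 nm fluorescence at 0 and 30 min.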
# Menin-MLL FL inh – inhibitors of human menin-MLL interaction, wild-type MLL peptide; Fluorescence polarization, fluorescein-MLL peptide displacement from menin; FP activity change, % at 61.4 µM; 290,000 tested, under 10 active; AID 1766; inconclusive = falling polarisation curve, or a change in total fluorescence; inactive = total fluorescence flat and polarisation flat or rising; no compound was filed as active; the % refers to the polarisation; negative = inhibition;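 note: % of control where 0% means no effect; inhibitors lower the polarisation; unlabelled MLL peptide was the positive control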
# * marks the source's active call; other numbers are inactive results; ? = inconclusive; nt = not tested or not shown; & = joins results of further samples; [ ] = remark or other dose.
no.	SMILES	PINK1 expr mod	TRPML1 ag	TRPV1 potentiator	ClpP mod	TRPML1 blocker	Sfp PPTase inh	Menin-MLL FL inh
1	CCOC(=O)N1CCN(C(=O)c2ccccc2-c2ccccc2)CC1	4.8%	-0.6	22	0.0%	-2	9%	-0.7
2	CCn1cc(CN2CCN(CC(C)(C)C)C(CCO)C2)c2ccccc21 (centres undefined)	5.3%	-0.4	22	-6.3%	2	9%	-3.0
3	Cc1c(C(=O)N2CCc3ccccc32)oc2ccccc12	4.2%	2.4	-1	?	18	-17%	0.7
4	COc1ccc(C(CNC(=O)c2ccc(Br)o2)N2CCN(C)CC2)cc1 (centres undefined)	0.1%	0.0	6	0.5%	-4	nt	nt
5	O=C(CCCCl)OCc1cn(-c2ccc(Cl)cc2)nn1	1.0%	-0.2	-3	nt	-9	-1%	-1.7
6	O=C(COC(=O)c1cc(Cl)ccc1[N+](=O)[O-])NC1CC1	0.8%	2.9	nt	-3.8%	7	nt	nt
7	CCc1ccc(C(C)NC(=S)NCc2ccc(F)cc2)cc1 (centres undefined)	?	18	-1	-2.9%	5	19%	-3.8
8	COCCCNc1ccn2nc(-c3ccc(OCc4ccccc4)cc3)cc2n1	13%	-0.1	nt	4.6%	nt	nt	nt
9	Cc1ccc2nsnc2c1S(=O)(=O)NCc1ccc2c(c1)OCO2	-1.6%	1.2	?	0.7%	-7	11%	2.1
10	CC(=O)Oc1ccc2c(c1)C(=O)CCCCCC(=O)O2	0.4%	0.3	nt	12%	11	nt	nt
11	COC(=O)c1cc(NC(=O)c2ccc(C)cc2)c(=O)oc1C	4.0%	-0.6	-12	nt	-28	-10%	0.7
12	Cc1ccc(NC(=O)c2cc(-c3ccc4c(c3)OCO4)on2)cc1C	0.5%	1.1	26	nt	0	2%	-2.3
13	Cn1c(N)c(C(=O)COC(=O)c2cc(C3CC3)nc3ccccc23)c(=O)n(C)c1=O	1.2%	-0.1	23	?	-4	6%&-5%	-2.6&2.4
14	COc1ccc(OC(C)C(=O)Nc2cccc(OC)c2)cc1 (centres undefined)	-0.5%	-0.2	-2	0.2%	-1	-11%	3.9
15	COc1cc2c(cc1OC)/C(=C/C(=O)c1ccccc1F)NCC2	2.2%	2.4	-8	nt	10	-6%	1.8
16	CC(C)n1c(N2CCN(C(=O)NCc3ccccc3)CC2)nc2ccccc21	-0.1%	-0.7	-5	1.6%	7	9%	-1.0
17	O=C(NCc1cccnc1)C1CCCN1S(=O)(=O)c1ccc(Cl)cc1 (centres undefined)	-0.2%	-0.1	7	0.4%	-1	4%	-0.3
18	CSCCC(NC(=O)c1cccc(C)c1)C(=O)Nc1sccc1C(N)=O (centres undefined)	0.6%	0.7	-3	nt	-4	-1%	5.9
19	NS(=O)(=O)c1ccc(NC(=O)c2cccc3cc4ccccc4nc23)cc1	16%	3.6	nt	-1.1%	-11	nt	nt
20	Cc1cc2nc(C3CCN(CC4COc5ccccc5O4)CC3)[nH]c2cc1C (centres undefined)	?	2.1	0	0.0%	14	13%	-1.5
21	CCN(CC)c1ccc(NC(=O)c2ccc(Cl)nc2)cc1	1.0%	1.6	3	-2.4%	-18	2%	-5.4
22	CCOC(=O)Cn1nc(C)n(-c2ccc(F)cc2)c1=O	0.6%	-0.6	0	nt	8	14%	0.4
23	CC(=NNc1ccc([N+](=O)[O-])cn1)c1ccccc1	3.9%	-0.4	nt	0.2%	-3	nt	nt
24	CC(C)[C@@H](CO)N(C)S(=O)(=O)c1ccccc1Br	0.4%	-0.2	nt	-6.2%	5	nt	nt
25	COc1ccc(CNC(=O)CN(c2ccc(C)cc2)S(=O)(=O)c2c(C)nn(C)c2C)cc1	-0.7%	-1.0	8	1.1%	-8	11%	-1.4
26	Cc1ccc(OCC(=O)N2CCN(S(=O)(=O)c3ccc4c(c3)OCCO4)CC2)c(C)c1	0.9%	-0.6	8	1.4%	-7	nt	nt
27	CCN1CCC2(CC1)N=C(c1ccc(F)cc1)C(=S)N2	0.3%	0.6	6	-2.5%	-3	22µM*	1.9
28	COCCNC(=O)c1cc(S(=O)(=O)N2CCOCC2)ccc1SCc1cccc(OC)c1OC	0.7%	0.1	-5	nt	4	?	-6.9
29	O=C(CSCc1ccccc1Cl)N1CCN(c2ccccn2)CC1	0.3%[38.3 µM]	0.3	3	32µM*	-5	?	1.9
30	Cc1ccc2c(CC(=O)Nc3ccc(S(=O)(=O)N4CCCCC4C)cc3)coc2c1 (centres undefined)	1.9%	0.5	nt	-3.2%	16	nt	nt
31	CCOc1nc(-c2ccc(OC)cc2)ccc1-c1noc(-c2ccncc2)n1	6.7%[38.3 µM]	-0.4	-3	-6.3%	24	6%	2.4
32	CCOC(=O)CC1(c2ccccc2)CCOC(C)(C)C1 (centres undefined)	-1.2%	1.2	1	-2.3%	17	10%	-2.4
33	CCOC(=O)C(C)Oc1cccc2c(=O)n(CC(=O)Nc3ccc4c(c3)OCCO4)ccc12 (centres undefined)	2.7%	0.0	nt	-19%	6	-11%	1.2
34	CN(c1cnn(-c2ccccc2)c(=O)c1Cl)n1cccc1	-1.7%	0.4	-16	nt	36	5%	3.5
35	O=C(NCc1ncc(C(F)(F)F)cc1Cl)Nc1ccccc1	-1.3%	-0.7	-6	-5.2%	-12	0%	2.9
36	COc1ccc(C(CNC(=O)Cc2ccccc2)N2CCCCC2)cc1 (centres undefined)	-0.6%	0.0	3	-29%	3	13%	1.3
37	CCc1ccc(-c2ccc3nnc(SCC(=O)NCC4CCCO4)n3n2)cc1 (centres undefined)	11%	0.6	6	nt	9	nt	nt
38	COc1ccc(-n2nc3c(N4CCC(C(=O)NC5CCCCC5)CC4)nnc(C)c3c2C)cc1	3.7%&2.2%	-1.2&-0.1	4	-12%&-13%	-11&1	-9%	nt
39	Cc1nn(Cc2ccc(F)cc2)c(C)c1NC(=O)c1cnn2cccnc12	5.9%[38.3 µM]	0.0	2	-0.4%	-1	7%	-1.0
40	O=C1c2cccc3cccc(c23)N1Cc1cccc(F)c1	10%	2.3	17	nt	4	-11%	-3.0
41	CCc1ccc2[nH]c(C(=O)Nc3ccc(F)cc3Br)cc2c1	0.0%	0.0	-21	-2.8%	28	56µM*	-16
42	OCC1OC(Oc2cccc3ccccc23)C(O)C(O)C1O (centres undefined)	-0.1%	-0.6	6	-0.6%	-8	11%	-7.0
43	Cc1noc(-c2ccccc2)c1NC(=O)Nc1ccccc1	0.4%	0.4	-8	nt	0	11%	-1.0
44	COc1ccc(C2c3[nH]c4ccccc4c3CCN2CCCn2cccn2)c(F)c1 (centres undefined)	-0.1%	0.5	-2	nt	16	4%	-1.1
45	COc1cc(OC)c(OC)cc1/C=C1\CCC/C(=C\c2cc(OC)c(OC)cc2OC)C1=O	-3.7%	3.0	-18	nt	-11	-12%	?
46	Cc1ccc(OCC(=O)N2CCOCC2)cc1C	-0.7%	0.4	-26	-1.9%	-7	5%	-2.1
47	Cc1ccc(/C=N/NC(=O)C2COc3ccccc3O2)s1 (centres undefined)	3.5%	1.6	-21	-0.4%	-6	nt	nt
48	Cc1cccc(C(=O)NCC(c2ccc(F)cc2)N2CCOCC2)c1 (centres undefined)	-1.9%	0.9	10	nt	18	14%	0.4
49	O=C(CN1C(=O)c2ccccc2C1=O)Nc1ccccc1C(=O)NC1CCCCCC1	0.2%	1.7	-12	-4.2%	3	20%	-0.7
50	CC1=C(c2ccc(C)c(C)c2)S(=O)(=O)N(Cc2ccc(C(=O)NCc3ccc(C)cc3)cc2)C1=O	0.0%	0.1	nt	11µM*	6	nt	nt
51	NC(=O)CC(NC(=O)Cc1cccc2ccccc12)c1ccc(NCCc2cccc(F)c2)c([N+](=O)[O-])c1 (centres undefined)	14%	0.4	-1	0.0%	56	?	1.9
52	CCc1nc2ccc(C(=O)N3CCN(C(C)=O)CC3)cn2c1N(CCC(C)C)CCN(C)C	1.3%	0.3	nt	-1.6%	3	nt	nt
53	Cc1ccc(S(=O)(=O)N2CCC(C(=O)OCCOc3ccccc3)CC2)cc1C	1.1%	4.4	6	-1.9%	17	nt	nt
54	O=C(NCCCCc1ccccc1)c1cccc(Br)c1	-0.1%	1.1	-3	3.4%	-13	-5%	0.1
55	COCCNC(=O)CCCN1C(=O)CCn2nc(-c3cccn3C)cc21	3.9%	0.0	nt	-0.7%	-16	nt	nt
56	COCCOC(=O)c1c(C)oc2ccc(NS(=O)(=O)c3ccc(F)cc3)cc12	0.8%	-0.1	-1	1.8%	-12	-3%	-3.2
57	CC(=O)c1c(C)[nH]c(C(=O)OCC(=O)N2CCc3ccccc32)c1C	-0.5%	1.8	10	-3.3%	9	-2%	6.1
58	Nc1nonc1-n1nnc(C(=O)N/N=C/c2ccccn2)c1-c1ccccc1	0.6%	0.0	7	-0.2%	2	-9%	-0.9
59	COC(C/C=C\C(=O)[C@H](C)OCc1ccccc1)OC	0.8%	3.5	nt	0.3%	9	nt	nt
60	COc1ccc(C(=O)COC(=O)c2cccc(-n3cnnn3)c2)c(OC)c1	11%	2.2	-4	nt	-9	nt	nt

# Next entries follow:
no.	SMILES	PINK1 expr mod	TRPML1 ag	TRPV1 potentiator	ClpP mod	TRPML1 blocker	Sfp PPTase inh	Menin-MLL FL inh
61	Cc1noc(C)c1NC(=O)N(C)C[C@H]1OCCCC[C@@H](C)Oc2ccc(NS(=O)(=O)c3ccccc3)cc2C(=O)N([C@H](C)CO)C[C@@H]1C	2.1%	-0.6	nt	0.5%	12	nt	nt
62	CCN(CCCNC(=O)CCNC(=O)Cn1cnc2ccccc2c1=O)c1ccccc1	-2.0%	1.9	6	-0.6%	-9	9%	-1.3
63	N#Cc1cc([N+](=O)[O-])ccc1NC(=O)CSc1n[nH]c(=O)[nH]c1=O	0.1%	0.0	nt	nt	-2	nt	nt
64	CCOc1cc(C)ccc1OCc1nnc(SCC(=O)c2cccc([N+](=O)[O-])c2)n1CC	nt	-0.5	7	-2.6%	-5	20%	-0.8
65	CC(=O)c1sc(N/N=C2\CC3CCC2(C)C3(C)C)nc1C (centres undefined)	14%	1.9	1	nt	5	28µM*	?
66	Cc1ccc(Cl)cc1-c1cc(C(=O)NCc2ccccc2)[nH]n1	28%	-1.0	nt	1.0%	nt	nt	nt

# High-throughput results deposited in PubChem BioAssay by National Center for Advancing Translational Sciences (NCATS).
